Compound activity from PubChem.
Lassa entry inh = Lassa virus entry inhibition | hit rate 1.2% among 300,000 | Lassa virus pseudotype entry inhibition, cell reporter; control for the full effect not named in the record | Potency, µM (top dose mostly 37.9 µM), for inactives: at the highest dose activity change, negative = inhibition, usual class: inhibitors; active means well fitted inhibition curve with a large enough effect; inconclusive means small, poorly fitted or top-dose-only effect, or effect the other way; inactive means flat fitted curve, though single readings scatter; tested in HEK293 cells; further: on the % scale 0 is the no-effect control and ±100 the full control effect; nearly all actives have a fitted effect of over 50% in size; luciferase read-out
Marburg entry inh = blocks Marburg virus binding to or entry into cells; Marburg virus pseudotyped entry inhibition, cell reporter; control for the full effect not named in the record; about a third of the inactives were read at about 46 µM; Potency, µM (doses to about 37.8 µM), for inactives: at the highest dose activity change, negative = inhibition, most hits filed as inhibitors; hit rate 1.8% among 300,000; active = well fitted inhibition curve with a large enough effect; inconclusive = small, poorly fitted or top-dose-only effect, or effect the other way; inactive = flat fitted curve, though single readings scatter; tested in HEK293 cells; about a fifth of its hits are not listed in these tables; further: on the % scale 0 is the no-effect control and ±100 the full control effect; luciferase read-out
SARS PLP yeast = blocks SARS-CoV papain-like protease in a yeast assay | S. cerevisiae expressing SARS-CoV PLpro, growth rescue; control for the full effect not named in the record | Potency, µM (doses to about 32.9 µM), without a hit: at the highest dose activity, positive = growth rescue | hit rate 0.19% among 330,000; active means well fitted rising curve with a large enough effect; inconclusive means small, poorly fitted or top-dose-only effect; inactive means no such curve, though single readings can be large or run the other way; further: 0% is about no effect; nearly all actives have a fitted effect of over 55% in size; growth read by luminescence after 48 h
NS1 function inh = blocks influenza NS1 protein function; S. cerevisiae slowed by influenza A NS1, growth recovery by OD600; Potency, µM (doses to about 46.1 µM), for the others: at the highest dose activity, positive = more growth; hit rate 0.4% among 270,000; AID 2326; active means well fitted rising curve with a large enough effect; inconclusive means small, poorly fitted or top-dose-only effect; inactive means no such curve, though single readings can be large or run the other way; further: nearly all actives have a fitted effect of over 50% in size
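Recovery from NS1-induced slow growth read by OD600 in budding yeast switched to galactose assay medium (pH 6.0, -URA) at 1:100 dilution. Compound 23 nl per well; the matching strain lacking NS1 serves as control.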
StopGo reporter = lowers the luciferase signal of an FMDV 2A StopGo reporter. human cells with a luciferase reporter of 2A StopGo recoding; control for the full effect not named in the record. Potency, µM (doses to about 57.9 µM), without a hit: at the top dose signal change, negative = less light. hit rate 1.2% among 410,000. AID 1159524; active = well fitted falling curve with a large enough effect; inconclusive = small, poorly fitted or top-dose-only effect; inactive = no such curve, though single readings can be large or run the other way; tested in HEK293T cells; further: on the % scale 0 is the no-effect control and ±100 the full control effect; nearly all actives have a fitted effect of over 45% in size; luciferase light after 4 h
Cruzain inh Det = blocks cruzain activity in presence of Triton detergent | purified cruzain, Z-FR-AMC fluorescence, 0.01% Triton | Potency, µM, inactives show max response, negative = inhibition, hits mostly inhibitors | hit rate 0.43% among 200,000;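 further: plate controls were neutral wells for no effect and buffer without enzyme for full effect; nearly all actives have a fitted effect of over 40% in size; top concentration of the series not given in the record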
Target sequence (P25779 123-467 limits assumed): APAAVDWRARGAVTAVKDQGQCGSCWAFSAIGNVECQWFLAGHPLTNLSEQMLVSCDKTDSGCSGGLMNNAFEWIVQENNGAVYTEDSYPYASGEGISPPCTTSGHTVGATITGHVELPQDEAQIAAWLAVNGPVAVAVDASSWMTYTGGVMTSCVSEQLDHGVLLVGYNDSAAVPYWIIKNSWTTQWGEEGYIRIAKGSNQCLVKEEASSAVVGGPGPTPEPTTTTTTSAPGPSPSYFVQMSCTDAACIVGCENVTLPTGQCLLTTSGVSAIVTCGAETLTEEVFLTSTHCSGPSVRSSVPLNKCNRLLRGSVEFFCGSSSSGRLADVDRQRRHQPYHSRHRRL
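Cruzain (1.5 nM) preincubated 15 min at RT with compound in 100 mM sodium acetate pH 5.5, 5 mM DTT, 0.01% Triton X-100. Reaction started with 2 uM Z-FR-AMC; AMC fluorescence (ex 360/em 450 nm) change over 60 s gave rate.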
Cruzain inh noDet = cruzain (T. cruzi) inhibition without detergent | P25779 | purified cruzain, Z-FR-AMC fluorescence, no detergent | Potency, µM, for the others: max response, negative = inhibition, most hits filed as inhibitors | hit rate 2.3% among 200,000 | AID 1476;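 further: plate controls were enzyme without inhibitor for no effect and buffer without enzyme for full effect; nearly all actives have a fitted effect of over 40% in size; top concentration of the series not given in the record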
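Purified cruzain at 1.5 nM, pre-incubated 15 min with compound at room temperature in 100 mM sodium acetate pH 5.5, 5 mM DTT, 0.00005% Triton X-100. Reaction started with 2 uM Z-FR-AMC; AMC fluorescence increase over 60 s gives rate.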
RE007 growth inh = less growth of the S. pombe RE007 Vpr strain; S. pombe RE007 Vpr strain, BacTiter-Glo ATP luminescence, 24 h; control for the full effect not named in the record; hit rate 0.21% among 360,000; Potency, µM (titrated, usually from 92.2 µM), without a hit: at the highest dose activity change, negative = less growth; AID 651644; active = well fitted falling curve with a large enough effect; inconclusive = small, poorly fitted or top-dose-only effect; inactive = no such curve, though single readings can be large or run the other way;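 further: on the % scale 0 is the no-effect control and ±100 the full control effect; nearly all actives have a fitted effect of over 50% in size; the assay follows cell death caused by Vpr and the record does not say whether a fall means rescue or toxicity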
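Fission yeast RE007 carrying one integrated HIV-1 vpr copy, seeded at OD 0.01 in PMG+AL medium with 23 nL pinned compound. Grown 24 h at 30 degrees; viability read by BacTiter-Glo luminescence after 5 min.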
Numbers without * were called inactive; ? = inconclusive; . = not tested or not shown; & = joins results of further samples; [ ] = another dose, or the depositor's remark. Unless noted, the call rests on the fitted dose curve; in most records, active means well fitted curve in the direction sought with a large enough effect; inconclusive means small, poorly fitted or top-dose-only effect, or another doubt; inactive means no such curve, though single readings can be large; an effect the other way counts as inactive or inconclusive. Potency means the concentration at half of the fitted maximal effect.

SMILES	Lassa entry inh	Marburg entry inh	SARS PLP yeast	NS1 function inh	StopGo reporter	Cruzain inh Det	Cruzain inh noDet	RE007 growth inh
Cc1ccc(-c2cn3cccnc3n2)cc1NC(=O)c1c(-c2ccccc2Cl)noc1C	-29%	-29%	0%	-30%	-10%	-28%	?	9%
CC(C)c1ccc(NC(=O)CCS(=O)(=O)c2cccc3nonc23)cc1	-16%	?	13%	15%	5%&-10%	-3.7%	4%	-5%
Cc1ccccc1S(=O)(=O)Cc1ccc(C(=O)NCCN(Cc2ccccc2)C(C)C)o1	-6%[46.1 µM]	?	0%	1%	-23%	.	.	-21%
NS(=O)(=O)c1ccc(NC(=O)COC(=O)C2(c3ccc(F)cc3)CCCC2)cc1	-23%	?	10%	15%	18µM*	-9.9%	-2%	19%
O=C(Nc1cccc(-c2ccccc2)c1)N1CCN(C(=O)Nc2cccc(-c3ccccc3)c2)CC1	6%	1%[46.1 µM]	-2%	3%	-20%	.	.	-9%
CCOc1ccc(NC(=O)Nc2cccs2)cc1	-24%	?	-5%	-53%	1%	-4.1%	1%	-16%
O=c1[nH]c2ccc(N=Cc3c(O)ccc4cc(Br)ccc34)cc2[nH]1	-8%	?	-9%	1%	-18%	-9.6%	-18%	-16%
COc1ccc(C(=O)NCCc2cnc[nH]2)cc1OC	-3%[46.1 µM]	?	2%	3%	1%	.	.	-4%
O=S(=O)(c1ccc(Oc2ccc(Br)cc2)cc1)N1CCOCC1	?	?	-22%	-41%	?	-3.3%	11%	1%
Cc1ccc(NCc2ccccc2O)cc1	-24%	26%&26%	-5%	3%	41%[activator]	-7.8%	11%	-6%
CC(=O)Nc1ccc(C(=O)OCC(=O)NCCC2=CCCCC2)cc1	2%	-1%	-4%	.	-14%	.	.	-19%
COc1ccc([N+](=O)[O-])cc1NC(=O)Cc1ccccc1Cl	-23%	?	6%	3%	5%	-6.8%	2%	-4%
COc1cc(OC)c(OC)cc1/C=N/Nc1nc2ccccc2[nH]1	.	.	0%	-4%	-8%	.	.	3%
Cc1ccc(S(=O)(=O)CCSc2nc(C)cc(C)c2C#N)cc1	?	?	-16%	-35%	.	-2.6%	-6%	-7%
CCCCN(CCCC)S(=O)(=O)c1ccc(NC(=O)Cc2cccs2)cc1	9.2µM*	?	2%	-1%	-22%	-17%	?	-2%
COC(=O)Nc1nn(-c2ccc(OC)cc2)c(=O)c(C#N)c1C	15%[46.1 µM]	?	2%	.	3%	.	.	-7%
Cn1cc(CNCc2ccccc2OCC(O)CN2CCc3ccccc3C2)cn1 (centres undefined)	-2%	?	1%	1%	6%	.	.	?
CC1=C(C(=O)NCc2ccc(Cl)cc2)C2(CCC(C)CC2)OC1=O (centres undefined)	-20%[46.1 µM]	-18%&-18%[46.1 µM]	-8%	-1%	?	-1.8%	26%	4%
Cc1cc(=O)oc2c3c(cc(OCC(=O)NCCN4CCOCC4)c12)OC(C)(C)CC3	.	.	0%	-12%	0%	.	.	-15%
N=C1C(c2nc3ccccc3s2)=C(O)CN1c1ccccc1	-16%[46.1 µM]	18%[46.1 µM]	0%	-3%	34%[activator]	.	.	1%
O=C(N/N=C/C(Br)=C/c1ccccc1)c1cccnc1	?	?	-6%	-46%	18%	.	.	2%
COc1ccc(CCN(C(=O)COc2ccccc2)c2nc(-c3ccccc3)cs2)cc1OC	0%	-26%	2%	29%	-13%	-1.1%	?	6%
N#Cc1ccccc1NC(=O)CN1CCN(Cc2ccccc2)CC1	13%	7%	2%	0%	-13%	.	.	-3%
O=C(Nc1ccc(Cl)cc1)N1CCSc2ccccc21	-6%	-19%	-2%	-7%	-4%	-12%	-1%	-8%
Cn1cc([N+](=O)[O-])c(C(=O)Nc2sc3c(c2C#N)CCC3)n1	.	.	0%	3%	10%	.	.	-4%
CC1CCCCC1NC(=O)Cn1cnc2ccccc2c1=O (centres undefined)	-10%	-3%	8%	3%	8%	1.9%	13%	7%
COc1cc2ccccc2cc1C(=O)Nc1ccccc1C	4%	12%	.	-1%	74%[activator]	.	.	5%
COc1ccccc1-c1nnc(C2CCN(C(=O)c3cccc(Cl)c3)CC2)o1	-19%[46.1 µM]	-23%[46.1 µM]	.	.	-12%	-3.4%	-5%	.
CC1(OC(=O)c2cccs2)C(=O)C=C2C=C3CCCN3C=C2C1=O (centres undefined)	?	?	-2%	?	-3%	.	.	0%
CC(=O)c1ccc(NC(=O)c2ccc(S(=O)(=O)N3CCCC3)cc2)cc1	-9%	0%	-6%	-7%	-23%	-0.9%	-5%	-4%
NNC(=O)c1sccc1OCc1ccc(Cl)cc1Cl	8%	14%[46.1 µM]	-8%	.	?	.	.	2%
COC(=O)c1nc(-c2ccccc2)oc1N1CCOCC1	3%[46.1 µM]	?	0%	0%	-22%	.	.	-7%
CCOC(=O)c1c(S(=O)(=O)Nc2ccc(CN3CCC(C)CC3)cc2)c(C)n(C)c1C	?	?	-4%	2%	-14%	.	.	-4%
Cc1c[n+]([O-])n(-c2ccc(C(=O)O)cc2)n1	9%	3%	-1%	3%	-15%	8.3%	-4%	6%
CCOC(=O)C1=C(C)NC(=O)NC1c1ccc(F)cc1 (centres undefined)	0%	7%&7%	-39%	2%&-13%	-7%	1.1%	-8%	-1%
O=C(N/N=C/c1ccc(F)cc1)c1cc[n+]([O-])cc1	23%[46.1 µM]	5%[46.1 µM]	-5%	-9%	-1%	.	.	-15%
Cc1cc(N2CCN(C)CC2)n2nc(-c3ccc(Cl)cc3)nc2n1	.	.	-1%	2%&2%	-12%	-6.3%	1%	.
COc1cccc(CSc2nnc(-c3ccco3)n2C)c1	12%	0%	1%	-69%	37%[activator]	1.5%	0%	-1%
CCC(C)(C)n1nnnc1C(c1cc2cc(C)ccc2[nH]c1=O)N1CCCC1 (centres undefined)	15%[14.3 µM]	?	2%	-5%	-4%	-9.3%	-8%	-12%
Cc1ccc(S(=O)(=O)N2CCC(C(=O)Nc3cc(C)ccc3C)CC2)cc1	-14%[46.1 µM]	12%[46.1 µM]	.	.	-22%	-0.9%	11%	.
Cc1nn(C)cc1CNC(=O)c1cccc(F)c1	-4%	-5%	2%	-4%	2%	-1.6%	2%	0%
Cn1c(COc2ccc(Br)cc2)nnc1SC1CCc2ccccc2C1=O (centres undefined)	-20%	?	-1%	21%	32µM*	-8.9%	-4%	10%
CCN(CC)C1Oc2cc3c(cc2C(c2cc(OC)c(O)c(OC)c2)C1C)OCO3 (centres undefined)	?	-9%	.	.	-16%	.	.	16%
Cc1ccc(CC2C(=O)N(c3ccc(F)cc3)C(=O)C2C)cc1 (centres undefined)	?	5%	.	4%	-3%	.	.	2%
CCOc1ccc(CNC(=O)c2ccccc2NC(=O)C2=CSCCO2)cc1	-7%[46.1 µM]	-11%[46.1 µM]	-3%	-14%	-15%	.	.	6%
OC12CCCCC1C(c1ccccc1)NCC2 (centres undefined)	3%	-10%	0%	0%	.	7.6%	5%	-5%
COC(=O)c1nnn(-c2nonc2N)c1CSc1nc2ccccc2o1	0%	?	-2%	-11%	.	-3.1%	0%	-6%
CCN(C(=O)COC(=O)/C(C#N)=C/c1ccc(OC)cc1)C1CCS(=O)(=O)C1 (centres undefined)	9%	1%	1%	.	6%	.	.	-3%
CC(C)OC(=O)C(C(=O)C(F)(F)F)c1cc(NS(=O)(=O)c2ccc3ccccc3c2)c2ccccc2c1O (centres undefined)	?	-17%	-65%	28%	-39%	-5.0%	-7%	8%
COc1ccccc1C(=O)NCCC(=O)NCc1ccncc1	7%	?	5%	.	0%	.	.	-3%
CCOC(=O)COc1c(Br)cc(C2NC(=O)NC(C)=C2C(C)=O)cc1OC (centres undefined)	3%	15%	15%	1%	26%	0.3%	-13%	9%
Cc1cccc(OCC(=O)N(C)CCc2ccccn2)c1	0%	6%[46.1 µM]	-1%	-5%	5%	3.7%	0%	-2%
COc1cccc(CNC(=O)c2cc(Sc3cccc(Cl)c3)nc3ccccc23)c1	2%[46.1 µM]	.	.	.	11%	0.1%	-4%	.
Cc1cccc(C)c1Nc1c(-c2ccccn2)nc2c(C)cccn12	0%[46.1 µM]	-6%[46.1 µM]	.	.	-24%	-3.7%	-1%	.
COc1ccc(CNC(N)=O)cc1OC	-5%	?	-1%	-4%	-15%	2.6%	5%	0%
COc1cc2c(cc1OC)C(COc1cc(C)cc(C)c1)N(C(=O)COc1ccccc1)CC2 (centres undefined)	?	.	.	.	?	-0.4%	3%	.
CN(c1cccc(NC(=O)c2ccc(Cl)c(S(=O)(=O)Nc3ccccc3)c2)c1)S(C)(=O)=O	-24%	3.7µM*	9%	?	19%	-2.1%	-10%	-2%

6 compounds picked at random from the list so far:
SMILES	Lassa entry inh	Marburg entry inh	SARS PLP yeast	NS1 function inh	StopGo reporter	Cruzain inh Det	Cruzain inh noDet	RE007 growth inh
Cc1cccc(C)c1Nc1c(-c2ccccn2)nc2c(C)cccn12	0%[46.1 µM]	-6%[46.1 µM]	.	.	-24%	-3.7%	-1%	.
OC12CCCCC1C(c1ccccc1)NCC2 (centres undefined)	3%	-10%	0%	0%	.	7.6%	5%	-5%
COc1ccccc1C(=O)NCCC(=O)NCc1ccncc1	7%	?	5%	.	0%	.	.	-3%
Cn1c(COc2ccc(Br)cc2)nnc1SC1CCc2ccccc2C1=O (centres undefined)	-20%	?	-1%	21%	32µM*	-8.9%	-4%	10%
Cc1ccc(CC2C(=O)N(c3ccc(F)cc3)C(=O)C2C)cc1 (centres undefined)	?	5%	.	4%	-3%	.	.	2%
CCOC(=O)COc1c(Br)cc(C2NC(=O)NC(C)=C2C(C)=O)cc1OC (centres undefined)	3%	15%	15%	1%	26%	0.3%	-13%	9%
